MgrA DNA FP: modulators of Staphylococcus aureus MgrA DNA binding; fluorescence polarization; inhibition, %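 (about 10 µg/mL by stock and volumes)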; hit rate 0.13% among 84,000; AID 602314;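 active means above 50% in either of two replicates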;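 further: 0% = protein plus DNA without compound and 100% = DNA alone without protein; higher means less MgrA bound to DNA so lower polarization; one replicate is shown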
Sa helicase inh: blocks Staphylococcus aureus DNA helicase | purified S. aureus helicase, fluorescence unwinding assay; about half of the hits fall short of the stated cut | inhibition, %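 (tested at about 80 µM)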 | hit rate 0.05% among 120,000;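 active means both duplicates at 50% or more, or one of them with a favoured structure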;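 further: 0% = mean of negative control wells and 100% = mean of positive control wells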
The depositor's hits bear a star; / = not tested or not shown. This is a subset (hit frequency here may not be typical).

SMILES	MgrA DNA FP	Sa helicase inh
c1ccc(CNc2nc3cccnc3s2)cc1	2.0	/
COc1cc(-c2nnc(COC(=O)c3cccnc3SC)o2)cc(OC)c1OC	/	13
CCNC(=O)c1ccc(C2SCC(=O)N2Cc2ccco2)cc1 (centres undefined)	3.4	1
Cc1ccc(-c2nn(-c3ccccc3)cc2C(=O)N(C)C2CCN(C)CC2)cc1	-1.2	-14
Cc1[nH]c2ccc(C(=O)O)cc2c1C	3.0	8
COc1ccc(Cc2nn[nH]n2)cc1	-1.0	8
COC(=O)Cn1c(=NC(=O)C(C)(C)C)sc2cc(F)ccc21	/	-22
CC1Cn2c(nnc2-c2cccc(O)c2)S1 (centres undefined)	-0.3	-5
COCC(C)n1c(C)cc(C(=O)COC(=O)[C@@H]2CCCN2C(=O)c2cccs2)c1C (some centres undefined)	/	-1
CCOC(=O)N1CCN(C(=O)c2cnc3n(c2=O)CCS3)CC1	/	4
COc1cc(Cl)c(C)cc1NC(=O)COC(=O)CCC1CCCC1	0.2	3
CN(C)c1nc2c([nH]1)c(=O)[nH]c(=O)n2C	-1.2	-7
Cc1cc(O)cc2oc(C(F)(F)F)c(Oc3ccccc3)c(=O)c12	/	-3
Cn1c(=NC(=O)c2ccc(Cl)s2)sc2cccc(Cl)c21	/	-15
COc1cccc(NC(=O)c2ccc(C)cc2)c1	/	21
CCOc1cc(C2C3=C(CCCC3=O)OC3=C2C(=O)CCC3)ccc1O	-0.4	/
CS(=O)(=O)CCSc1ncccc1C(=O)NCc1cccs1	4.3	/
Cc1csc(SCC(=O)Nc2cc(C(C)(C)C)nn2-c2ccccc2)n1	/	-8
C=CCN(Cc1nc(-c2ccc(C)cc2)no1)C(=O)C(C)(C)C	0.6	1
CC1=NN(c2ccccc2)C(=O)C1/C=C1\SC(=S)N(CC2CCCO2)C1=O (centres undefined)	1.1	1
N#C/C(=C\c1cc(Br)cs1)c1cccs1	/	0
Cc1ccc(SC(C)C(=O)NC2CCCCC2)cc1 (centres undefined)	/	34
CCc1c(C)sc(NC(=O)CCCC(=O)O)c1C(N)=O	4.6	3
COc1ccc(-c2nnc(SC/C(O)=C(\C#N)c3nc4ccccc4s3)n2CC2CCCO2)cc1 (centres undefined)	/	-26
Nc1ccc(Sc2ccc(N)cc2C(=O)O)c(C(=O)O)c1	/	7
Cc1ccc2nc(CSCc3nc4ccc(Cl)cc4n3CCO)cc(=O)n2c1	/	-5
CC(=O)Oc1ccc2c(c1)oc(=O)c1c3cc(OC(C)=O)c(OC(C)=O)cc3oc21	/	-3
Clc1ccc(-c2nc3sccn3c2/C=N/OCc2ccc(Cl)c(Cl)c2)cc1	2.0	/
O=C(NCCc1ccccc1)C1CCN(C(=O)C(C(=O)c2ccccc2)n2ccccc2=O)CC1 (centres undefined)	0.2	-16
NC(=S)CCn1ncc2c(N)ncnc21	/	-8
CCC(NS(=O)(=O)c1ccc(C)cc1)C(=O)NCc1ccccc1 (centres undefined)	/	9
CN1CCN(/N=C/c2ccc(N(C)c3ccccc3)cc2)CC1	/	9
CCCCNc1nnc(SCc2nc3ccsc3c(=O)[nH]2)s1	/	3
Cc1ccc(C(=O)NCCn2nc(C)cc2C)cc1	-2.7	7
CCc1ccc(Nc2nnc(SCC(=O)Nc3cccc4nsnc34)s2)cc1	/	6
CCOC(=O)c1ccc(NC(NC(=O)OC)(c2ccccc2)C(F)(F)F)o1 (centres undefined)	/	-11
CN(C)NC1=CC(=[N+]2CCCCC2)CC(C)(C)C1	-0.3	-23
c1ccc(-c2nnc(Cc3cn4ccsc4n3)o2)cc1	/	6
COc1cc(/C=C(\C#N)C(=O)NCc2cccnc2)ccc1O	/	-110
CN(C)S(=O)(=O)c1ccc(S(=O)(=O)N2CCN(C=O)CC2)cc1	1.9	-5
CC(C)C(C(=O)O)N1C(=O)/C(=C/c2ccc(Cl)cc2Cl)SC1=S (centres undefined)	1.9	/
O=C(N/N=C/c1cccnc1)c1ccc(CN2CCOCC2)cc1	2.8	20
CCOC(=O)c1c(-c2c(Cl)cccc2Cl)noc1N	-2.0	/
CC(C)CNc1cc(C(C)C)c(C#N)c2nc3ccccc3n12	/	-35
CCOC(=O)c1ccc(-n2c(C)cc(/C=N/O)c2C)cc1	2.0	2
CC1CN(CCC(=O)Nc2sc3c(c2C#N)CCC3)CC(C)O1 (centres undefined)	/	10
Cc1cc(C(=O)NCc2ccco2)c(C)o1	1.6	/
S=C(NCCN1CCOCC1)N1CCC(Cc2ccccc2)CC1	/	7
CSc1nnc(-c2c[nH]c3ccccc23)n1C	/	2
O=C(NCCSc1ccccc1)c1cccnc1Oc1ccccc1	-0.4	/
CC(C)(C)C(=O)Nc1ccc(-c2cc3cc(Cl)ccc3o2)cc1	2.7	/
COc1ccccc1C1CC(c2ccc(C)cc2)=NN1S(=O)(=O)c1ccccc1 (centres undefined)	0.6	/
Cc1cc(C)cc(NC(=O)/C=C\C(=O)O)c1	/	-7
CCOC(=O)C1CCN(C(=O)CCN2C(=O)c3ccccc3Sc3ncccc32)CC1	-2.8	1
OC(COc1ccccc1)CN1CCN(c2ccc(C(F)(F)F)cn2)CC1 (centres undefined)	-0.3	/
CCSc1ncc2c(c1C#N)CCC2	7.6	16
CCOC(=O)N1CC=C(c2c(C)[nH]c3ccccc23)CC1	1.5	-5
Nc1nc2n(n1)C(c1cccs1)CC(c1ccc(Cl)cc1Cl)N2 (centres undefined)	-3.0	5
O=C(O)c1ccc(-n2nc(C(F)(F)F)c3c2CCCC3)cc1	/	10
Cc1cccc(NC(=O)c2ccccc2Cl)c1	/	4
(cont.)
SMILES	MgrA DNA FP	Sa helicase inh
COC(=O)C1SC(C)SCC1=O (centres undefined)	/	17
CN1CCN(S(=O)(=O)c2ccc(Oc3ccc(Oc4ccccc4)cc3)nc2)CC1	/	-3
Cc1ccc(/C=C2\C(=O)Nc3ccc(Br)cc32)o1	/	-12
Cc1ccc(S(=O)(=O)c2nc(S(C)(=O)=O)sc2NC2CCS(=O)(=O)C2)cc1 (centres undefined)	/	-3
CCn1cc(C(=O)NCCc2ccccc2)c(=O)c2cc(S(=O)(=O)N3CCC(C)CC3)ccc21	-3.9	11
Cn1c(=O)c(-c2nc(C(C)(C)C)cs2)cn(-c2ccccc2)c1=O	/	-19
Cc1noc2ncnc(N3CCCC(C(=O)Nc4ccc5c(c4)OCO5)C3)c12 (centres undefined)	/	9
CN(C(=O)c1ccccc1)c1ccc(C(O)(C(F)(F)F)C(F)(F)F)cc1	0.3	8
CS(=O)(=O)Nc1ccc(C(=O)N2CC(=O)Nc3ccccc32)cc1	3.1	-9
CCN1C(=O)C2(c3ccccc31)c1c(oc3ccccc3c1=O)C(=O)N2CC1CCCO1 (centres undefined)	/	-19
COc1ccc(Nc2cc(C)ncn2)cc1	/	6
COc1ccc(-n2c(=S)[nH]c(=O)c3cccnc32)cc1	-0.4	/
N#Cc1cccnc1NNC(=O)CCC(=O)O	/	4
CC(C)c1ccc(NC(=S)Nc2ccccc2Cl)cc1	-0.6	/
CN(C)C=C1C(=O)CC(c2ccc(Cl)cc2)CC1=O (centres undefined)	/	27

Molecules above with an NH in an aromatic ring (7):
SMILES	MgrA DNA FP	Sa helicase inh
Cc1[nH]c2ccc(C(=O)O)cc2c1C	3.0	8
COc1ccc(Cc2nn[nH]n2)cc1	-1.0	8
CN(C)c1nc2c([nH]1)c(=O)[nH]c(=O)n2C	-1.2	-7
CCCCNc1nnc(SCc2nc3ccsc3c(=O)[nH]2)s1	/	3
CSc1nnc(-c2c[nH]c3ccccc23)n1C	/	2
CCOC(=O)N1CC=C(c2c(C)[nH]c3ccccc23)CC1	1.5	-5
COc1ccc(-n2c(=S)[nH]c(=O)c3cccnc32)cc1	-0.4	/

The results go on:
SMILES	MgrA DNA FP	Sa helicase inh
N#C/C(=N\Nc1cccc(Cl)c1)C(=O)c1ccco1	/	-9
CCOC(=O)c1sc(NC2=NCCCCC2)nc1C	/	-22
CCCNC(=O)c1cc(CCC)on1	/	-23
COC(=O)c1sc(NC(=O)COc2ccc(OC)cc2)c(C#N)c1C	6.2	13
O=C(CCSc1ccc(Cl)cc1)NCc1ccncc1	-3.5	11
Cc1ccc(C)c(S(=O)(=O)/N=C(\c2ccccc2)N(C)C)c1	1.3	8
CCN(CC)C(=O)Oc1cc(C)nc(-c2ccc(F)c(Cl)c2)n1	-1.1	/
c1coc(C2Nc3cccc4cccc(c34)N2)c1	14	-1
COc1ccc2c(c1)C(C)CC(C)(C)N2C(=O)CSc1ncn[nH]1 (centres undefined)	/	-38
O=C(CN1C(=O)CSC1=O)CN1C(=O)CSC1=O	4.7	-7
CC(=O)Nc1ncnc2sc3c(c12)CCCC3	1.7	11
CCC(C)NC(=O)C1CCN(S(=O)(=O)CC)CC1 (centres undefined)	-0.8	4
Cc1cc(-c2ccc(S(=O)(=O)NCCN3CCCC3)s2)n[nH]1	/	-5
N#C/C(=C\Nc1ccccc1Cl)S(=O)(=O)c1ccccn1	0.6	/
CCN1CCC(N(Cc2ccco2)C(=O)Nc2cccc(C(F)(F)F)c2)CC1	-2.2	4

Arranged by number of heavy atoms (falling): some entries from above
SMILES	MgrA DNA FP	Sa helicase inh
CCN1CCC(N(Cc2ccco2)C(=O)Nc2cccc(C(F)(F)F)c2)CC1	-2.2	4
O=C(CCSc1ccc(Cl)cc1)NCc1ccncc1	-3.5	11
O=C(CN1C(=O)CSC1=O)CN1C(=O)CSC1=O	4.7	-7

The results go on:
SMILES	MgrA DNA FP	Sa helicase inh
FC(F)(F)c1cccc(-c2ccc(-c3csnn3)o2)c1	/	3
CNC(=O)NNC(=O)c1ccccc1	-1.5	/
N#CC(C(=O)OC1CCCCC1)c1nc2ccccc2nc1N1CCCCC1 (centres undefined)	/	-19
C#C[C@]1(O)CCC2C3CCC4=Cc5oncc5C[C@]4(C)C3CC[C@@]21C (some centres undefined)	2.1	/
O=C1CCC(C(=O)OC(C(=O)Nc2ccc(Cl)c(C(F)(F)F)c2)c2ccccc2)N1 (centres undefined)	-1.6	11
CN(C(=O)COc1ccccc1)c1nc(-c2ccccc2)cs1	-4.2	17
CCCc1nc2ccc(NC(C)=O)cc2[nH]1	-0.8	5
CCSc1nnc(CNc2ccc(F)cc2)n1CC1CCCO1 (centres undefined)	0.7	2
COc1ccc(C(=O)Nc2cccc3nsnc23)cc1OC	1.6	8
CC1(C)Cc2c(sc3nc(SCC#N)n(-c4ccccc4)c(=O)c23)CO1	-2.3	/
O=C(COc1ccccc1)NC(C(=O)O)C12CC3CC(CC(C3)C1)C2 (centres undefined)	/	8
O=C(O)c1cc(-c2ccccc2)c(N2CCOCC2)s1	/	11
CO[C@H]1O[C@H](CO)C(=O)C(O)=C1N	-1.4	-14
Cc1nc(C(F)(F)F)ccc1C(=O)Nc1ccc(C(F)(F)F)cn1	-0.6	/
Cc1cccc(/N=C/c2c(O)n(Cc3ccc4c(c3)OCO4)c(=O)c3ccccc23)n1	/	-4

Three entries already listed, sorted by the number in MgrA DNA FP, high to low:
SMILES	MgrA DNA FP	Sa helicase inh
COc1ccc(C(=O)Nc2cccc3nsnc23)cc1OC	1.6	8
CNC(=O)NNC(=O)c1ccccc1	-1.5	/
CC1(C)Cc2c(sc3nc(SCC#N)n(-c4ccccc4)c(=O)c23)CO1	-2.3	/

The list goes on:
SMILES	MgrA DNA FP	Sa helicase inh
Cc1c(C(=O)NC(C)C)oc2ccc3c(c12)C(O)CC(C)(C)O3 (centres undefined)	/	26
CC(=O)Nc1c2c(nn1-c1ccccc1)CSC2	/	10
CCC(CC)NC(=O)COc1ccc(-c2nnco2)cc1	/	0
CC1(C)Cc2nnc3c4c(nnc(c24)C1)CC(C)(C)C3	/	21
CC(=S)Nc1ccc2c(c1)OCO2	/	11
CCN(CC)C(=O)/C=C\c1cn(-c2ccccc2)nc1-c1ccc(OC)cc1	-1.2	10
COc1ccc2c(CC(=O)OCC(=O)Nc3cc(C(F)(F)F)ccc3N3CCOCC3)coc2c1	/	-6
OC1(C2(O)CC(c3ccccc3)NO2)CCCCC1 (centres undefined)	0.2	-4
CC(C)CNC(=O)C1CCCCC1C(=O)O (centres undefined)	-6.3	3
N#Cc1cncc(C#Cc2ccccc2)c1	-2.3	/
O=C1Nc2ccccc2N(O)N1c1ccc(O)cc1	/	-11
CC(C)c1ccc(C(C)NC(=O)C2=COCCO2)cc1 (centres undefined)	/	-14
CCn1c(C)nnc1SCc1cccc(Cl)c1	-1.2	11
O=C(NC1CCCCC1)c1ccccc1F	-1.9	-3
Cc1cccc(NC(=O)CNC(=O)Cc2ccc3c(c2)OCCO3)c1C	/	-47
COC(=O)C1=CN(Cc2ccc3c(c2)OCO3)C=C(C(=O)OC)C1c1ccc2c(c1)OCO2	/	2
OC1c2ccnn2[C@@H](O)c2ccnn21 (some centres undefined)	-1.5	/
CCOc1ccc(N2C(=O)NC(=O)/C(=C/c3ccc(OC)c(OC)c3)C2=O)cc1	-0.1	/
Cc1cccc(-n2cnc3cc(C(=O)NCc4ccc(F)cc4)ccc32)c1	/	11
CCc1ccc(-c2cc3c(=O)n(CC(=O)NC4CCCC(C)C4C)nc(C)n3n2)cc1 (centres undefined)	-1.1	1
Cc1nc2ccccc2c(=O)n1-c1ccc(C(=O)NC(C)c2ccccn2)cc1 (centres undefined)	/	-5
COc1cc(C(=O)CSc2nccc(C)n2)cc(OC)c1OC	/	12
CS(=O)(=O)Nc1ccccc1C(N)=O	/	11
CC(c1ccccc1)C1Nc2ccccc2C(=O)N1c1ccccc1 (centres undefined)	-0.9	-3
CC(C)COc1ccc(C(=O)OCCN2CCCCC2)cc1	-1.9	9
Cc1ccc(C23CCC(=O)N2C(C(=O)NC2CC2)CS3)cc1 (centres undefined)	/	11
COc1ccc(CN(C)CCc2ccccn2)c(OC)c1OC	0.4	7
O=C(Nc1nnc(-c2ccccc2)o1)C1CCCCC1	/	-1

Bioassay records as filed in PubChem BioAssay.
